Source: PubChem
GLA inh pH 4.5: alpha-galactosidase A (human) inhibition, pH 4.5; AID 1467; purified enzyme, 4-MU-alpha-Gal fluorescence, pH 4.5; activity change, negative = inhibition, % at 105 µM; 230,000 tested, under 10 active; P06280; inconclusive = small, poorly fitted or top-dose-only inhibition, or a rising curve; inactive = flat fitted curve, though single readings scatter; no compound was filed as active;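 also: 0% = full activity with enzyme and -100% = basal without enzyme; dose as in the result columns while the protocol names 77 µM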
Rango complex inh: Rango-importin beta binding inhibition; Potency, µM (top dose mostly 92.2 µM), for the others: at the top dose inhibition of complex formation; 0.031% of 340,000 active; Q14974; Rango CFP/YFP FRET sensor + importin beta, 45 min; active = rising FRET ratio curve, often small or poorly fitted; inconclusive = mostly compound fluorescence or quenching in the first reads; inactive = flat curves in all reads;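 also: potency is read from the fitted curve at half-maximal effect; 0% = DMSO wells and 100% = buffer wells lacking importin beta; nearly all actives have a fitted effect of over 15% in size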
Target sequence (Q14974 whole entry, looked up): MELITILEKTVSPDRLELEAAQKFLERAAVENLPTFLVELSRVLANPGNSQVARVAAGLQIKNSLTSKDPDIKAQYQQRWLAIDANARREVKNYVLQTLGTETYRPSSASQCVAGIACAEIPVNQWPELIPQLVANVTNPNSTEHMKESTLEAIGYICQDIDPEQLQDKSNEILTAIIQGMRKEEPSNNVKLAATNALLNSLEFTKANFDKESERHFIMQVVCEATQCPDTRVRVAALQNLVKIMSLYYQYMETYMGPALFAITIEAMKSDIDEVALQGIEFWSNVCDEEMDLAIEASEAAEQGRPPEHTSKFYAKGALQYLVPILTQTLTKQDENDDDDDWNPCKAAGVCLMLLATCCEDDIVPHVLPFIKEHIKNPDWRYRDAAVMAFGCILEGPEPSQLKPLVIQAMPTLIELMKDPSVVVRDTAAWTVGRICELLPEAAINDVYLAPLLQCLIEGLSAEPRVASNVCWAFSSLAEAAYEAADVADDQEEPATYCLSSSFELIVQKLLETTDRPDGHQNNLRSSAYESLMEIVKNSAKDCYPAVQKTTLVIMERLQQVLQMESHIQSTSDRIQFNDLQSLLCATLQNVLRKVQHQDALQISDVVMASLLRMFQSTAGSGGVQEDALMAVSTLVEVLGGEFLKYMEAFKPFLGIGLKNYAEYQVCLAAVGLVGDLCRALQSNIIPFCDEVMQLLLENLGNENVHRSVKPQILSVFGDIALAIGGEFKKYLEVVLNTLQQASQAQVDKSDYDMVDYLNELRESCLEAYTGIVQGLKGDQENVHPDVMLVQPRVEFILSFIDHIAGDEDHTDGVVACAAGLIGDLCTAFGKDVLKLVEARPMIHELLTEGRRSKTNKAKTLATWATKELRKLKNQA
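Inhibition scored from the CFP 486 nm/YFP 530 nm FRET ratio 45 min after adding 0.125 microM importin beta to 50 nM Rango biosensor preincubated 5 min with compound (room temperature, PBS with DTT, Tween-20, BSA). No-importin wells as positive control.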
miR-21 FLuc: miR-21 reporter, rising signal. HeLa miR-21 FLuc reporter, luciferase, 48 h. 340,000 tested, under 10 active. Potency, µM (series often up to 38.3 µM), without a hit: at the top dose reporter change, positive = more light; active = well fitted rising curve with a large enough effect; inconclusive = small, poorly fitted or top-dose-only effect; inactive = no such curve, though single readings can be large or run the other way;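 also: % of control where 0% means no effect; miR-21 action dims this reporter so a rising signal means less miR-21 action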
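Luminescence from a firefly luciferase reporter carrying a miR-21 binding site downstream, stably expressed under a CMV promoter in HeLa cells that make miR-21 endogenously, reports miRNA modulation after 48 h compound exposure up to approximately 40uM final.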
Rango dissoc inh: prevents RanGTP from dissociating the Rango-importin beta complex; O95149+P62826; Biochemical FRET Rango-importin beta, RanGTP-induced dissociation; Potency, µM (doses to about 46.1 µM), without a hit: at the highest dose activity change, negative = inhibition; 0.071% of 340,000 active; active means falling FRET ratio curve, often poorly fitted, with flat reads before Ran was added; inconclusive means other falling curves, or compound fluorescence or quenching; inactive means flat or rising ratio curve;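 also: potency is read from the fitted curve at half-maximal effect; % of control where 0% means no effect; nearly all actives have a fitted effect of over 45% in size; -100% = wells without RanGTP and RCC1; the record marks most hits as doubtful in a second field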
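FRET read at 45 min, room temperature: inhibitors block the CFP/YFP signal rise when RanGTP (0.6 uM Ran, 2 mM GTP, 0.2 uM RCC1) frees Rango (0.1 uM) from importin beta (0.25 uM). Pre-read after 5 min compound exposure flags interference.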
The depositor's hits bear a star; ? = inconclusive; . = not tested or not shown. Only part of the results is shown; count on the stated rates, not on these rows.

SMILES	GLA inh pH 4.5	Rango complex inh	miR-21 FLuc	Rango dissoc inh
CC(c1ccccc1)N1C(=O)c2ccc(C(=O)Nc3ccccc3C(=O)O)cc2C1=O (stereo unspecified)	.	2.0%	12%	17%
CCOc1ccc(-c2cc(CCCC(=O)Nc3cccc(OC)c3)no2)cc1	0	2.2%	?	1%
O=C(O)CCC(=NNC(=O)c1cccc(S(=O)(=O)N2CCCCC2)c1)c1ccccc1	.	-2.8%	.	2%
CC1CCN(CC(=O)NCCc2ccc(F)cc2)CC1	4	-0.2%	-6%	-7%
Nc1nc(NCC2CCCO2)nc(Nc2ccc(F)cc2)c1[N+](=O)[O-] (stereo unspecified)	-2	-2.2%	0%	-3%
CCc1ccccc1N(CC(=O)NCc1ccco1)C(=O)CCC(=O)Nc1ccccn1	.	-1.6%	2%	8%
CCCN1CCN(S(=O)(=O)c2ccc3c(c2)NC(=O)C(C)S3)CC1 (stereo unspecified)	.	-0.1%	8%	3%
CCN(C1CCCCC1)S(=O)(=O)c1ccc(OC)c(C)c1	-3	-3.7%	-1%	-20%
CC(OC(=O)c1ccccc1NCc1ccco1)C(=O)Nc1ncc(Cl)cc1Cl (stereo unspecified)	20	3.9%	-2%	-4%
Cc1cc(-c2ccc(NC(=O)[C@@H]3CCCC[C@@H]3C(=O)O)c(C)c2)ccc1NC(=O)[C@@H]1CCCC[C@@H]1C(=O)O	7	-1.3%	-13%	3%
CS(=O)(=O)c1ccc(C(=O)Nc2ccc(N3CCCCC3)cc2)c(Cl)c1	1	-2.1%	-1%	12%
Cc1cc(C)nc(NC2=NC3CCCCC3N2)n1 (stereo unspecified)	5	2.6%	0%	43%
COc1cc(/C=C2/SC(=S)N(CC(=O)O)C2=O)ccc1OC(=O)c1ccco1	.	6.6%	15%	-7%
CN(c1ccccc1)S(=O)(=O)c1cccc(NC(=O)c2ccc(Cl)c([N+](=O)[O-])c2)c1	.	0.6%	.	12%
O=C(Nc1ccccn1)C1CCN(S(=O)(=O)c2cccc3nonc23)CC1	-5	-1.1%	-1%	1%
Cc1ccc(-c2csc3nc(=O)c(C)nn23)cc1	1	-3.6%	0%	12%
O=C(c1ccc(F)cc1)C1CCN(C(=O)c2ccncc2)CC1	-4	0.4%	-2%	1%
CCOC(=O)CCc1c(C)c2ccc(OCC(=O)N3CCOCC3)c(C)c2oc1=O	.	0.0%	-1%	-13%
O=C(COc1ccc(-n2cnnn2)cc1)Nc1ccccc1OC(F)F	.	3.8%	.	-22%
O=C(Nc1cccc(Cl)c1)N1CCN(C2c3ccccc3-c3ccccc32)CC1	1	-1.9%	1%	-8%
COc1ccccc1C(=O)NCCN=C1NS(=O)(=O)c2ccccc21	.	5.5%	-7%	-5%
C=C1CC2C(=O)N(Cc3cc(OC)ccc3OC)C(C(=O)OCC)(C(=O)OCC)C1N2C(=O)OC(C)(C)C (stereo unspecified)	.	-2.3%	.	-2%
O=C(NC(C(=O)N/N=C/c1cccnc1)c1n[nH]c(=O)c2ccccc12)c1ccccc1 (stereo unspecified)	3	-0.4%	-15%	-2%
Nc1c(C(=O)NCc2ccccc2)nnn1Cc1ccc(F)cc1	2	-2.6%	-1%	19%
Cc1cccc(-n2c(SCc3ccc(C#N)cc3)nnc2-c2c[nH]c3ccccc23)c1	-18	0.1%	15%	-7%
Cc1ccc(S(=O)(=O)N2CCN(C(=O)c3cc4c(s3)CCC(C)C4)CC2)cc1 (stereo unspecified)	.	0.6%	.	7%
c1ccc(-c2nc(-c3ccccn3)no2)cc1	6	-4.6%	?	-11%
CCN(CC(=O)Nc1c(F)cccc1F)C(=O)CNC(=O)c1cccc(C)c1	.	-1.0%	-3%	2%
Cc1cccc(CN2C(=O)c3ccccc3S(=O)(=O)c3ccc(C(=O)NCCCN4CCCC4)cc32)c1	.	1.7%	0%	1%
COc1ccccc1-n1cc(CN2CCN(CC(C)C)C(CCO)C2)cn1 (stereo unspecified)	2	-2.3%	-4%	3%
CCOc1ccc(NCCC(O)c2ccc(F)cc2)cc1 (stereo unspecified)	.	-1.4%	-13%	9%
Nc1ncnc2c1ncn2CCOc1ccccc1	-1	0.5%	-55%	-7%
COc1ccc(NC(=O)C2CCCN(c3nccc(C)n3)C2)cc1 (stereo unspecified)	-2	-1.3%	0%	1%
Cc1ccc(-c2onc3ccc(C=O)cc23)cc1	-3	?	-38%	?
O=C(CNC(=O)c1ccccc1Br)N/N=C/c1cc(Br)ccc1O	-15	?	23%	?
Cc1ccc(CN2CCN(Cc3cn(C)nc3C)CC2CCO)o1 (stereo unspecified)	5	0.3%	2%	-1%
O=C(CSc1nc(C2CC2)n(-c2ccccc2)n1)NCc1ccco1	.	-3.5%	.	-11%
CC(/C=C\C=C\c1ccccc1)=N\NC(=O)c1cncc(Br)c1	-3	-1.9%	-1%	10%
O=C(CSc1nnnn1-c1ccc2c(c1)CCC2)NCc1cccs1	-3	-1.8%	-10%	-20%
O=C(CSc1nc(-c2ccco2)cc(C(F)(F)F)n1)NCC1CCCO1 (stereo unspecified)	1	-3.7%	-3%	-4%

Full records as entered above. Values in the order: GLA inh pH 4.5, Rango complex inh, miR-21 FLuc, Rango dissoc inh
COc1ccccc1C(=O)NCCN=C1NS(=O)(=O)c2ccccc21 in the list: ., 5.5%, -7%, -5%
Cc1ccc(S(=O)(=O)N2CCN(C(=O)c3cc4c(s3)CCC(C)C4)CC2)cc1 (stereo unspecified) in the list: ., 0.6%, ., 7%

Other entries:
SMILES	GLA inh pH 4.5	Rango complex inh	miR-21 FLuc	Rango dissoc inh
N#C/C(=C(/O)c1ccc(Cl)cc1)c1nc2ccccc2[nH]1	.	-2.0%	-6%	29%
COc1ccc(CN(CCC(c2ccco2)C(C)C)C(C)=O)cc1OC (stereo unspecified)	-5	1.3%	0%	0%
COCCn1c(SCC(=O)Nc2nnc(C)s2)nnc1-c1ccncc1	-17	0.0%	-4%	-4%
CCOC(=O)[C@H]1[C@H]2COc3ccc(Cl)cc3[C@@H]2N2C(=O)c3ccccc3NC(=O)[C@@]12C	.	?	.	?
CC(/C=N/NC(=O)c1nnn(-c2nonc2N)c1CN1CCCCC1)c1ccccc1 (stereo unspecified)	.	4.9%	.	-1%
CCCc1nc2oc3c(OCC)ncnc3c2c2c1COC(C)(C)C2	2	-1.2%	-4%	25%
CCOC(=O)N1CCN(C(c2cccnc2)c2ccc3cccnc3c2O)CC1 (stereo unspecified)	-12	?	4%	-8%
NC(=O)CSc1ncnc2c1nnn2Cc1ccc(F)cc1	-9	5.8%	12%	-5%
O=C1CCCCC/C1=N/Nc1ccc(OCc2ccccc2)cc1	-4	0.9%	-49%	-5%
CCN(c1ccc(NC(=O)c2ccc(N3CCCC3=O)cc2)cc1)C(C)C	.	0.7%	.	-4%
Cc1ccc2c(NC(=S)NC(=O)c3ccccc3)cccc2n1	.	2.9%	0%	1%
C=CCOc1c2ccc(C(=O)NC3CCCc4ccccc43)cc2nn1C (stereo unspecified)	-6	0.4%	-12%	2%
CN1CCc2c(sc3c2c(=O)n(-c2cccc(Cl)c2)c2nncn32)C1	.	?	.	?
O=C(COc1ccccc1Br)NCc1ccccn1	7	-1.7%	-49%	3%
O=Cc1ccc(OC(=O)c2cccnc2)cc1	-17	3.3%	5%	32%
Cc1cnc(NC(=O)C2CC=CCC2)s1 (stereo unspecified)	.	-3.7%	-21%	-12%
Cc1ccccc1NC(=O)C1CCN(S(=O)(=O)c2cccs2)CC1	2	-1.5%	-1%	-4%
N#CCC(=O)NC1CCC(CC2CCC(NC(=O)CC#N)CC2)CC1 (stereo unspecified)	.	1.4%	-1%	1%
CC1Cc2ccccc2N1C(=O)COC(=O)Cn1nnc(-c2ccccc2)n1 (stereo unspecified)	-11	?	-7%	7%
COc1cc(S(=O)(=O)n2ccnc2)ccc1Br	-6	2.9%	-1%	10%
CCN(C(=O)C1CC1)C1CCS(=O)(=O)C1 (stereo unspecified)	.	1.7%	.	0%
COc1ccc(-n2[nH]c(C)cc2=O)cc1	3	-0.4%	-5%	15%
Cc1cccc(/C=N/NC(=O)c2ccc(Br)cc2)c1	2	-1.4%	-63%	-3%
O=C(Oc1ccc(=O)n(-c2ccccc2)n1)c1ccc(F)cc1	3	0.3%	-4%	-4%
COc1ccc(NC(=O)CSc2nc3sc4c(c3c(=O)n2-c2ccc(OC)cc2)CCN(C)C4)cc1	.	4.5%	-19%	-9%
O=C(N/N=C/c1ccc([N+](=O)[O-])cc1)c1ccc(NS(=O)(=O)c2cccs2)cc1	.	0.5%	.	40%
O=C(c1cc(-c2cccs2)nc2ccccc12)N1CCN(S(=O)(=O)c2ccccc2)CC1	4	-0.2%	11%	-7%
CN(C(=O)c1cccc(NC(=O)Cc2ccc(NC(=O)C3CCCN(C(=O)C4CCCC4)C3)cc2)c1)C1CCC1 (stereo unspecified)	.	0.3%	.	5%
Cc1ccc2c(c1)NC(=O)C(CC(=O)NCCCN1CCN(C3CCCCC3)CC1)O2 (stereo unspecified)	-4	.	0%	.
O=C(NC1CCCCC1)c1cc([N+](=O)[O-])ccc1N1CCCCC1	-5	-2.0%	-6%	9%
CCOC(=O)c1cc(-c2ccc3c(c2)OCCO3)nc2c1c(C)nn2CCC#N	-7	?	-9%	3%
Cc1c(C(=O)O)sc(S(=O)(=O)N2CCNCC2)c1C(=O)O	?	.	0%	.
O=C(c1ccco1)N1CCC(N2CCN(c3ccccc3)CC2)CC1	11	4.3%	6%	-3%
O=C(C1CC1)N1CCc2cc(S(=O)(=O)NCCC3=CCCCC3)ccc21	2	3.0%	-11%	22%
O=c1c2ccccc2nc2c3ccccc3c3nncn3n12	5	-2.1%	1%	0%
COC(=O)CC/C(O)=C1\C(=O)CC(C)(C)CC1=NCCc1nc2ccccc2[nH]1	-7	-1.1%	1%	-2%
CC1CCCCN1CCNC(=O)c1cc2c(=O)n(C)c3ccccc3c2n1C (stereo unspecified)	-6	6.9%	-18%	-10%
COc1ccc(OC)c(S(=O)(=O)CC(O)CS(=O)(=O)c2ccccc2)c1 (stereo unspecified)	.	4.8%	-5%	18%
Cc1c(Cl)cccc1NC(=O)c1ccccc1-c1ccccc1C(=O)O	.	1.0%	2%	1%
CC1Cc2cc(C(=O)O)ccc2O1 (stereo unspecified)	4	0.1%	-4%	-4%
O=C(Nc1ccccc1)OCc1ccccn1	5	-4.1%	-41%	8%
CC(C)OC(=O)CN1C(=O)C(C)(C)Oc2ccc(C(=O)NC(C)(C)C)cc21	-6	2.5%	-2%	-1%
C#CCOC(=O)c1ccccc1C(=O)n1nnc2ccccc21	4	0.3%	-3%	10%
CC1CN(CC(=O)Nc2ccccc2Sc2ccccc2)CC(C)O1 (stereo unspecified)	?	0.4%	3%	9%

Entries shown so far containing an aryl methoxy group (12):
SMILES	GLA inh pH 4.5	Rango complex inh	miR-21 FLuc	Rango dissoc inh
CCOc1ccc(-c2cc(CCCC(=O)Nc3cccc(OC)c3)no2)cc1	0	2.2%	?	1%
CCN(C1CCCCC1)S(=O)(=O)c1ccc(OC)c(C)c1	-3	-3.7%	-1%	-20%
COc1cc(/C=C2/SC(=S)N(CC(=O)O)C2=O)ccc1OC(=O)c1ccco1	.	6.6%	15%	-7%
COc1ccccc1C(=O)NCCN=C1NS(=O)(=O)c2ccccc21	.	5.5%	-7%	-5%
C=C1CC2C(=O)N(Cc3cc(OC)ccc3OC)C(C(=O)OCC)(C(=O)OCC)C1N2C(=O)OC(C)(C)C (stereo unspecified)	.	-2.3%	.	-2%
COc1ccccc1-n1cc(CN2CCN(CC(C)C)C(CCO)C2)cn1 (stereo unspecified)	2	-2.3%	-4%	3%
COc1ccc(NC(=O)C2CCCN(c3nccc(C)n3)C2)cc1 (stereo unspecified)	-2	-1.3%	0%	1%
COc1ccc(CN(CCC(c2ccco2)C(C)C)C(C)=O)cc1OC (stereo unspecified)	-5	1.3%	0%	0%
COc1cc(S(=O)(=O)n2ccnc2)ccc1Br	-6	2.9%	-1%	10%
COc1ccc(-n2[nH]c(C)cc2=O)cc1	3	-0.4%	-5%	15%
COc1ccc(NC(=O)CSc2nc3sc4c(c3c(=O)n2-c2ccc(OC)cc2)CCN(C)C4)cc1	.	4.5%	-19%	-9%
COc1ccc(OC)c(S(=O)(=O)CC(O)CS(=O)(=O)c2ccccc2)c1 (stereo unspecified)	.	4.8%	-5%	18%
